UCH37 inh – human UCH37 deubiquitinating enzyme inhibition; purified proteasome/UCH37, Ub-AMC cleavage fluorescence; inhibition, % (no concentration beside the values); Q9Y5K5; 330,000 compounds, 0.33% hits;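 active = mean of two replicates above 20%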;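 note: 0% = compound-free wells with enzyme and 100% = wells lacking proteasome; stock transfer was 100 nL into about 20 µL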
Target sequence (Q9Y5K5 whole entry, looked up): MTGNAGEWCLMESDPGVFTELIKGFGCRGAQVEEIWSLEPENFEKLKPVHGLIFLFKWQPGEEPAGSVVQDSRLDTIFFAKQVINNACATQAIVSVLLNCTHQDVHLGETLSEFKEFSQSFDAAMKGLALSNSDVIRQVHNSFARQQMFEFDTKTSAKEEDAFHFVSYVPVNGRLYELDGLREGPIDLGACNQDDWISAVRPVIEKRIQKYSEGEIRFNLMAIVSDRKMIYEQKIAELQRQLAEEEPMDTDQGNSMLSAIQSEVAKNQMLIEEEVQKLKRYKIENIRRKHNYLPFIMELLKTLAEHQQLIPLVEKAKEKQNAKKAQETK
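Assay system: Proteasome-bound UCH37. Buffer or medium: pH 7.4 Tris-HCl (50 mM) with ovalbumin, ATP-MgCl2, DTT. Incubation: 30 min preincubation with enzyme, 25 min cleavage at room temperature. Measured by: fluorescence, ex 355 nm, em 460 nm. Read-out basis: percent inhibition. Control set: wells without proteasome as full block, compound-free enzyme plus substrate as uninhibited.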
ALR H2O2 inh – human ALR oxidase inhibition via reduced H2O2 | P55789 | purified ALR, DTT oxidation, H2O2 HRP-luminol luminescence | inhibition, % (concentration not given with the values) | 290,000 compounds, 3.8% hits;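 active = mean and each replicate at 75% or more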;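 note: stock transfer was 7.5 nL into about 7.5 µL; 0% = neutral wells and 100% = wells with inactivated enzyme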
Target sequence (P55789 whole entry, looked up): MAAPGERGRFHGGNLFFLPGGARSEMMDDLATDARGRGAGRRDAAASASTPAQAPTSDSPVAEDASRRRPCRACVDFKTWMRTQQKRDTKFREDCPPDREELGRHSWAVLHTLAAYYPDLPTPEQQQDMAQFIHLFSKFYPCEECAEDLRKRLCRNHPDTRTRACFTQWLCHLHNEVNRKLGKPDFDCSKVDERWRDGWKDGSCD
FGF22 binding – FGF22 (human) thermal shift binding. AID 651658. 340,000 compounds, 1.5% hits. Q9HCT0. recombinant FGF22 thermal shift, SYPRO orange fluorescence; percent of sucrose octasulfate shift, DMSO zero. calls only at 9.99 µM;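 active = melting point raised past a set limit in the mean and every replicate; three in four hits are not shown here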
E coli growth – inhibitors of Escherichia coli growth; AID 1053175; 330,000 compounds, 0.21% hits; OD600 absorbance (no concentration beside the values); OD600, 23 h; active compounds read low;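 active = OD600 absorbance below the run mean of sample wells minus 3.6 SD, in any replicate, cut at about 0.56 in these data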;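 note: stock transfer was 300 nL into about 60 µL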
HNF4A DNA FP – change in binding of human HNF4 alpha to DNA; activity change, % at 10 µM; HNF4a-FITC DNA binding, fluorescence polarization, 1 h; 360,000 compounds, 0.3% hits; AID 1224865; in the data active = activity change above about 30%, passing the limit was not always enough;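 note: controls were the assay level and a saturating level of protein; the project sought stronger binding though the title names inhibitors; some compounds called inactive have numbers as strong as hits; positive values seem to mean higher polarization but the record does not say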
Target sequence (P41235 whole entry, looked up): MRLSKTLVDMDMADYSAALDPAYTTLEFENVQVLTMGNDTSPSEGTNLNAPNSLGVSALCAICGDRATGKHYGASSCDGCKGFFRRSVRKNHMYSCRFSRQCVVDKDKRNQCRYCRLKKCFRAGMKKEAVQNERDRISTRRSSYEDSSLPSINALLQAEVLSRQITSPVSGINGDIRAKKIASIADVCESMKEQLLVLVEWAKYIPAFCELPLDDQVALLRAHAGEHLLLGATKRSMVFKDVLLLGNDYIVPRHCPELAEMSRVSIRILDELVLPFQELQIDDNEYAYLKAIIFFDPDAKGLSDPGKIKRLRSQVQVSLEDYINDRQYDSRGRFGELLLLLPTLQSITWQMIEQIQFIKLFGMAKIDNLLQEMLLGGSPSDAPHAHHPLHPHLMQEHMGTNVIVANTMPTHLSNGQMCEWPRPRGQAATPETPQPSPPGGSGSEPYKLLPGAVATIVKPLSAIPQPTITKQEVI
* hit, by the source's call; i = inactive; . = not tested or not shown; & = joins results of further samples.

SMILES	UCH37 inh	ALR H2O2 inh	FGF22 binding	E coli growth	HNF4A DNA FP
NC(=O)C1CCCNc2c(I)cc([N+](=O)[O-])cc2C(=O)NC(CO)C(=O)NC(Cc2ccc(O)cc2)C(=O)N1 (stereo not drawn)	.	.	.	0.63	.
NC(=O)C1CC2(CC(c3cccc(NC(=O)c4ccccc4)c3)=NO2)CN1C(=O)C1CCC(=O)N1 (stereo not drawn)	.	.	.	0.7	.
COC(=O)C1=C(C(=O)OC)C2Nc3ccccc3[C@@]23CC(C(=O)OC)N(C(=O)COCc2ccccc2)C3=N1 (stereo partly drawn)	.	.	.	0.71	.
CCCCCCCCC=CCCCCCCCC(=O)NCCO	.	.	.	0.66	.
CCOC(=O)C1C2COc3ccccc3C2N2C(=O)N(c3ccc(OC)cc3)C(=O)[C@]12C (stereo partly drawn)	.	.	.	0.7&0.7	.
COC(=O)C(=Cc1c(OC)cc(OC)cc1OC)C(=O)c1ccc2c(c1)OCO2	.	.	.	0.68	.
C=CC1c2cc(C)ccc2N(S(=O)(=O)c2ccc(C)cc2)C(c2ccccc2)C1(C#N)S(=O)(=O)c1ccccc1 (stereo not drawn)	.	.	.	0.74	.
CCOC(=O)C1C2COc3ccc(C)cc3C2N2C(=O)c3cc(OC)c(OC)cc3NC(=O)[C@@]12C (stereo partly drawn)	.	.	.	0.64	.
COc1ccc(C(O)=C2C(=O)C(=O)N(CCN(C)C)C2c2ccccc2)cc1Cl (stereo not drawn)	.	.	.	0.73	.
CC1CN(C(C)CO)C(=O)c2cc(NC(=O)CCN3CCOCC3)ccc2OC1CN(C)S(=O)(=O)c1ccc(F)cc1 (stereo not drawn)	.	.	.	0.68	.
CC(C)C(N)c1cn(C(CO)C(=O)N2CCNCC2)nn1 (stereo not drawn)	.	.	.	0.69	.
CC(=O)OCC(=O)[C@@]1(OC(C)=O)C(C)CC2C3CC(F)C4=CC(=O)C=C[C@]4(C)[C@@]3(F)C(O)C[C@@]21C (stereo partly drawn)	.	.	.	0.69	.
CC(C)CC1COCCS(=O)(=O)N1Cc1cccc(F)c1 (stereo not drawn)	.	.	.	0.67	.
CC(C)CN1CCC(=O)N(C(CSc2ccc(Br)cc2)Cc2ccccc2)CC1 (stereo not drawn)	.	.	.	0.69	.
COC(=O)c1ccc(C23CC4(C2)C(CN(Cc2ccc(C(F)(F)F)cc2)C4c2ccccc2)C3c2ccc(Cl)nc2)cc1 (stereo not drawn)	.	.	.	0.72	.
CCOc1cc(C=Cc2cc(C(F)(F)F)[nH]c(=O)n2)ccc1O	.	.	.	0.68	.
CCC1=C(OC(=O)N(CC)CC)N2C(=O)OC(=NCC(=O)OC)[C@]2(C)C2C1=CCC1C(=O)N(C)C(=O)C12 (stereo partly drawn)	.	.	.	0.64	.
C#CCOCCOCCOCCNc1nc(N2CCN(C(=O)C(CCCCN)n3cc(CCCC)nn3)CC2)nc(N2CCN(C(=O)C(C(C)C)n3cc(CCO)nn3)CC2)n1 (stereo not drawn)	.	.	.	0.7	.
C=CCC(CC(=O)NCCO)C(=O)NC(COC(=O)C(CC=C)Cc1ccc(F)cc1)Cc1ccccc1 (stereo not drawn)	.	.	.	0.66&0.72&0.69	.
O=C1N=C(N2CCCC2C(=O)O)SC1=Cc1ccco1 (stereo not drawn)	.	.	.	0.68	.
CC(O)CCC(C)O[C@@]1(c2ccccc2)OC2CC(O)C(C)OC2O1 (stereo partly drawn)	.	.	.	0.68	.
CNC(=O)[C@@]1(C)C=CC(Cc2ccccc2)N1C(=O)OC (stereo partly drawn)	.	.	.	0.69	.
CC1CN(C(C)CO)C(=O)c2cccc(NS(=O)(=O)c3ccccc3)c2OC1CN(C)Cc1ccncc1 (stereo not drawn)	.	.	.	0.67	.
C#CCOCCOCCOCCNc1nc(N2CCN(C(=O)CCCCCCCCCCNC(=O)C(CCCCN)n3cc(CCCC(=O)O)nn3)CC2)nc(N2CCN(C(=O)CCCCCCCCCCNC(=O)C(CCCCN)n3cc(CCCC(=O)O)nn3)CC2)n1 (stereo not drawn)	.	.	.	0.64	.
CCOC(=O)N1C2=NC(C(=O)OC)=C(C(=O)OC)C3N(Cc4ccccc4)c4ccccc4[C@]23CC1C(=O)OC (stereo partly drawn)	.	.	.	0.68	.
CC1CN(C(C)CO)C(=O)c2cc(NC(=O)CCC(F)(F)F)ccc2OC1CN(C)C(=O)Nc1ccc2c(c1)OCO2 (stereo not drawn)	.	.	.	0.71	.
COc1ccc(NC(=O)N(C)CC2Oc3ccc(NC(=O)Cc4ccccc4)cc3CC(=O)N(C(C)CO)CC2C)cc1 (stereo not drawn)	.	.	.	0.68	.
CCCCCCSc1ccc(C2N[C@@](C)(C(=O)OC)C3C(=O)N(CC)C(=O)C23)cc1 (stereo partly drawn)	.	.	.	0.73	.
COC(=O)C1=C(C)N(Cc2ccccc2)C(=NCc2cc(OC)c(OC)c(OC)c2)NC1c1ccccc1 (stereo not drawn)	.	.	.	0.68	.
CCCOC(=O)C1NC(=O)N2C1SC(C)(C)C2C(=O)OCCC (stereo not drawn)	.	.	.	0.7	.
O=C(O)CC1c2ccccc2S(=O)(=O)N1C1CCCCC1 (stereo not drawn)	.	.	.	0.67	.
NC(=O)C1CC2(CC(c3cccc(NC(=O)C4CCC(=O)N4)c3)=NO2)CN1C(=O)CC(c1ccccc1)c1ccccc1 (stereo not drawn)	.	.	.	0.71	.
CC1(C)O[C@@H]2[C@@H](CO[C@@]3(COS(N)(=O)=O)OC(C)(C)O[C@@H]23)O1	1.7	1	.	.	.
CN1C(=O)CC[C@H]1c1cccnc1	0.3	-2	.	.	.
CC(=O)Nc1ccc([C@H]2[C@H](C)CC[C@H]3C(=O)N4[C@@H](CC[C@@H](C)[C@@H]4c4ccc(NC(C)=O)cc4)C(=O)N32)cc1	1.2	-4	.	.	.
C/C=C\C(=O)Nc1cccc(C2=NOC3(C2)C[C@H](C(N)=O)N(C(=O)[C@H]2CCC(=O)N2)C3)c1 (stereo partly drawn)	0.9	-4	.	.	.
CCC/C=C(\CCC)C(NS(=O)(=O)c1ccc(C(F)(F)F)cc1)c1ccccc1 (stereo not drawn)	1.2	-16	.	.	.
CC(=O)c1cc2c(cc1NC(=O)c1ccc(C)cc1)OCO2	-1.2	-1	.	.	.
CCCCC1=CC2=C(c3ccco3)C(=O)C(C)(OC(=O)c3ccc(OC)cc3)C(=O)C2=CN1C1CCCC1 (stereo not drawn)	-1.2	-104	.	.	.
COc1cc(CCN2C(=O)N[C@@H](c3cccc(C(F)(F)F)c3)C(C(C)=O)=C2C)cc(OC)c1OC	1.5	-10	.	.	.
CCCC1Cc2c(sc(NC(=S)NC(=O)c3ccccc3)c2C#N)CO1 (stereo not drawn)	4.3	5	.	.	.
COC(=O)[C@@H](NC(=O)O[C@@H]1C(=O)c2cc(Br)ccc2O[C@H]1c1cccc(OC)c1)C(C)C	4.4	-6	.	.	.
COC(=O)C1=C(C)N(CCc2cc(OC)c(OC)c(OC)c2)C(=O)N[C@H]1c1cccs1	3.6	-7	.	.	.
COc1ccc2nc(N/C(N)=N/C(=S)Nc3ccc(C)c(C)c3)nc(C)c2c1	2.4	-2	.	.	.
C#CCOCCOCCOCCNc1nc(N2CCN(C(=O)[C@H](CCC(=O)O)n3cc(C(N)[C@H](C)CC)nn3)CC2)nc(N2CCN(C(=O)[C@H](Cc3cc4ccccc4[nH]3)n3cc(C(N)[C@H](C)CC)nn3)CC2)n1 (stereo partly drawn)	3.2	-25	.	.	.
COc1ccc2c(c1)O[C@@H](c1cccc(C(F)(F)F)c1)[C@H](OC(=O)N[C@H]1CCCc3ccccc31)C2=O	-0.4	11	.	.	.
COC(=O)C1=C(C)N(Cc2ccccc2)C(=NCC(C)C)N[C@H]1c1ccccc1	0.3	-23	.	.	.
COc1ccc2c(c1)O[C@@H](c1cccc(C(F)(F)F)c1)[C@H](OC(=O)NCCc1ccc(OC)c(OC)c1)C2=O	1.3	0	.	.	.
COc1ccc(O)c(C(=O)CC(=O)c2ccccc2)c1	-5.0	17	.	.	.
CS(=O)(=O)c1ccc(-c2cc(Br)sc2-c2ccc(F)cc2)cc1	0.5	-1	.	.	.
Cn1cc(/C=N\NC(=O)C2COc3ccccc3O2)c2ccccc21 (stereo not drawn)	.	-3	i	.	.
COc1ccc(CCN2C(=O)CCC3=C2CCC3=O)cc1OC	.	.	.	.	-2.5
CCCS(=O)(=O)NC(=O)C1(C)CCN(C(=O)c2ccc3ccccc3c2)C1 (stereo not drawn)	.	.	.	.	1.9
CCc1nc2c(OCCC3CCCCC3)cccn2c1N(C)C(=O)C(C)C	.	.	.	.	-5.2
O=C1C=CC(=O)N1c1ccc(-c2nc3ccccc3o2)cc1	.	.	.	.	4.6
CCCS(=O)(=O)NC(=O)C1(C)CCCN(C(=O)c2ccccc2OC(F)(F)F)C1 (stereo not drawn)	.	.	.	.	-2.6
CC(C)C[C@@H](CN1CCC[C@@H]1CN1C(=S)NC[C@@H]1Cc1ccc(O)cc1)N1C[C@H](Cc2ccccc2)N(CCc2ccccc2)C1=S	.	.	.	.	4.0
O=C(O)Cn1c2ccccc2c2nc3ccccc3nc21	.	.	.	.	-0.7
COc1cc(C(O)c2nc(-c3ccc(N(C)C)cc3)cs2)ccc1F (stereo not drawn)	.	.	.	.	0.4
COCCNC(=O)C1CCCN(Cc2cccc(Cl)c2)CC1 (stereo not drawn)	.	.	.	.	-0.6

The final 4 entries of the section above come first, to join the parts.
SMILES	UCH37 inh	ALR H2O2 inh	FGF22 binding	E coli growth	HNF4A DNA FP
CC(C)C[C@@H](CN1CCC[C@@H]1CN1C(=S)NC[C@@H]1Cc1ccc(O)cc1)N1C[C@H](Cc2ccccc2)N(CCc2ccccc2)C1=S	.	.	.	.	4.0
O=C(O)Cn1c2ccccc2c2nc3ccccc3nc21	.	.	.	.	-0.7
COc1cc(C(O)c2nc(-c3ccc(N(C)C)cc3)cs2)ccc1F (stereo not drawn)	.	.	.	.	0.4
COCCNC(=O)C1CCCN(Cc2cccc(Cl)c2)CC1 (stereo not drawn)	.	.	.	.	-0.6
COc1ccc(OCCN2CCC(C(=O)NC(c3ccccc3)c3ccc4ccccc4n3)CC2)cc1 (stereo not drawn)	.	.	.	.	2.4
CN(Cc1cn(Cc2ccc(C(F)(F)F)cc2)nn1)C1CN(Cc2cn(Cc3ccc(C(F)(F)F)cc3)nn2)S(=O)(=O)C1 (stereo not drawn)	.	.	.	.	-2.2
NCCCCC(C(=O)O)N(C(=O)OCc1ccccc1)C(=O)OCc1ccccc1 (stereo not drawn)	.	.	.	.	3.8
CCNc1nc(NC(C)C)nc(-c2ccncc2)n1	.	.	.	.	3.0
CCC(c1nnnn1-c1ccc2c(c1)OCCO2)N1CCN(c2ccc(F)cc2)CC1 (stereo not drawn)	.	.	.	.	-3.1
CCCNC(=O)C1(C)CCCN(Cc2ccccc2-c2ccccc2)C1 (stereo not drawn)	.	.	.	.	2.0
CNc1nc(NCc2ccc(N(C)C)cc2)c2sccc2n1	.	.	.	.	-2.6
CC1(Cc2ccc(Cl)cc2)C(=O)Nc2c(Cl)cccc21 (stereo not drawn)	.	.	.	.	-1.0
CCCS(=O)(=O)NC(=O)C1(C)CCN(C(=O)c2cc3ccccc3s2)C1 (stereo not drawn)	.	.	.	.	2.5
CC1(CO)CCCC1NCCNC1CCCC1(C)CO (stereo not drawn)	.	.	.	.	8.2
Cc1ccc(F)c(C(=O)N2CCCC(C)(C(=O)NS(=O)(=O)C3CC3)C2)c1F (stereo not drawn)	.	.	.	.	0.2
CCc1nc2c(OCc3c(C)noc3C)cccn2c1N(C)C(=O)C(C)C	.	.	.	.	1.4
OCC1CSC(=S)N1Cc1ccccc1 (stereo not drawn)	.	.	.	.	1.4
O=c1c2c([nH]n1-c1ccccc1)C[C@@H](C1CCCCC1)O[C@H]2c1ccc(F)cc1	.	.	.	.	1.2
CC[C@H](C)C1OC(=O)[C@@H](C)[C@@H](CC)NC(=O)[C@H](C)N(C)C(=O)C(C)(C)C(=O)C(C)NC(=O)[C@H](Cc2ccc(OC)cc2)N(C)C(=O)[C@H](C(C)C)N(C)C(=O)CNC(=O)[C@H](CC(C)C)N(C)C(=O)CNC1=O (stereo partly drawn)	.	.	.	.	-0.7
C=CCOc1cccn2c(N(C)C(=O)c3ccccc3F)c(CC)nc12	.	.	.	.	2.4

A portion of the library; count on the stated rates, not on these rows.
